# Assay outcomes from PubChem.
# Sa growth inh: S. aureus growth inhibition at 42 and 30 °C, primary screen, LtaS inhibitor project, RN4220, two temperatures; OD600, 20 h, 42 °C; active compounds read low; relative growth, % (test concentration not listed); hit rate 0.53% among 170,000;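 active = growth at 42 °C up to 50% and 20 or more points under that at 30 °C, or under 10% at both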;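 note: 300 nL library stock went into each well; scaled to the means of positive and negative controls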
# HCMV NEC inh: inhibitors of HCMV UL50-UL53 interaction, biochemical, HTRF. HCMV UL50-UL53 nuclear egress complex (human cytomegalovirus). AID 1918969, 2023. inhibition, % (no concentration beside the values). hit rate 0.15% among 190,000. normalized percent inhibition;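 active = both replicates at 50% or more, plus weaker picks with an unusually low signal ratio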;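 note: stock transfer was 100 nL into about 20 µL; 0% = negative control wells and 100% = wells with untagged competitor protein; inactives centre near -12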
# GIV Gai3 FP: inhibitors of GIV peptide binding to Galpha-i3, primary screen, biochemical, fluorescence polarization, FITC-GIV GBA peptide, rat Galphai3 | 90 min; active compounds read low; scaled: aluminum fluoride 0%, vehicle 100% | percent of control (FP), % (test concentration not listed) | hit rate 0.42% among 210,000 | AID 1224905, 2016;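 active = replicate mean at 85% of control or lower, very high polarization wells dropped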;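 note: lower values mean more displacement of the GIV peptide from Galpha-i3; wells of about 15 µL received 100 nL stock; the first replicate is given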
# Target sequence (P08753 whole entry, looked up): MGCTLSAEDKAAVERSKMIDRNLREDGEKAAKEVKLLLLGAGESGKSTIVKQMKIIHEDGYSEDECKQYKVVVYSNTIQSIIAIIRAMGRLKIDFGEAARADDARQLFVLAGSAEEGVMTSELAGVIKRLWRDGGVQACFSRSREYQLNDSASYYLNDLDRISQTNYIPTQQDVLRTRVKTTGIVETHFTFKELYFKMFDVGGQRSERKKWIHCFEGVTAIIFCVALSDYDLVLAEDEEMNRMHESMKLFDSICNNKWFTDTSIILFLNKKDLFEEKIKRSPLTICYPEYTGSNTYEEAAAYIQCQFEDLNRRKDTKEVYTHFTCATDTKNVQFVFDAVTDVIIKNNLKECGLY
# Sa growth inh second temp: further read-out of Sa growth inh, marked with its call; relative growth, %; measured here: growth at 30 °C;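 optical density after 20 h as mean of two plates; 100% = untreated growth and lower means inhibition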
# * marks the source's active call; other numbers are inactive results; · = not tested or not shown. Not a hit list; about 0.85% have a hit in one of these screens.
mol	Sa growth inh	Sa growth inh second temp	HCMV NEC inh	GIV Gai3 FP
N#Cc1cccc2c(Oc3ccccc3)cc(C(F)(F)F)nc12	86	87	-8	101
Cc1cccc(N2CCN(C(=O)C3CCCN(C(=O)c4cc5sccc5n4C)C3)CC2C)c1 (stereo not drawn)	87	36	2	105
CCOc1ccccc1C(=O)Nc1nc2ccc(S(C)(=O)=O)cc2s1	93	91	5	·
Cc1ccc(-c2nc(N)n(C(=O)C(C)(C)C)n2)cc1	·	·	-27	101
CC1CCCCN1CCNC(=O)Cn1nc(-c2ccccc2)ccc1=O (stereo not drawn)	104	94	-4	102
CCOC(=O)c1c(C)[nH]c(C)c1S(=O)(=O)N1CCCC(C(=O)Nc2ccc(Cl)cc2)C1 (stereo not drawn)	·	·	-17	104
CCNc1nc(NCC)nc(N(n2cnnc2)S(=O)(=O)c2ccc(C)cc2)n1	125	83	17	101
CCOC(=O)c1c(-c2cccs2)csc1NC=O	114	92	·	107
CCc1ccccc1NC(=O)Cn1nc(CC)n2c(cc3sccc32)c1=O	115	94	-30	102
Cc1cccc2c1-c1sc(C(=O)NCCN3CCN(c4cccc(Cl)c4)CC3)cc1CO2	104	82	·	102
Cc1cccc(NS(=O)(=O)c2ccc3c(c2)CC(=O)N3)c1	106	71	-8	110
CC1CCC(NC(=O)C2CCCN(C(=O)c3cc(-c4ccccn4)n[nH]3)C2)CC1 (stereo not drawn)	·	·	6	101
COc1cccc(-c2nc(SCC(=O)NC3CCCC3)c(-c3ccc(F)cc3)[nH]2)c1	101	87	-14	101
Cc1cc(C)cc(Nc2cc(C)nc3nncn23)c1	81	89	3	103
CNS(=O)(=O)c1ccc(NC(=S)Nc2ccc3c(c2)OCO3)cc1	39	15	6	106
O=C1CCCCC1Sc1ncnc2sccc12 (stereo not drawn)	100	100	-26	·
CCc1ccc(NC(=O)Nc2cc3c(cc2Oc2ccccc2)n(C)c(=O)n3C)cc1	·	·	-5	107
COc1ccc(C(O)c2nc3ccccc3n2C(C)C)cc1 (stereo not drawn)	110	90	-14	·
O=C1NC2=C(C(=O)NN(c3ccccc3)C2)C(c2ccccc2)N1 (stereo not drawn)	100	85	-24	107
NC(=O)NC1C(=O)c2ccccc2OC1c1ccccc1 (stereo not drawn)	21	27	-47	101
O=C(CCC1COc2ccccc2O1)Nc1ccc(C(=O)O)cc1 (stereo not drawn)	100	82	-13	103
O=S(=O)(c1ccccc1)N1N=C(c2ccccc2)CC1c1ccccc1Cl (stereo not drawn)	·	·	-25	105
CCOC(=O)C1=C(CN(CC)Cc2ccccc2)NC(=O)NC1c1ccc(Cl)cc1 (stereo not drawn)	90	71	-26	107
O=C(c1ccc2c(c1)OCO2)N1CCCC1c1ccc(Cl)cc1 (stereo not drawn)	·	·	-11	108
CCc1ccccc1NC(=O)C(CC)Oc1ccccc1-c1nnc(-c2ccccc2)o1 (stereo not drawn)	87	80	·	101
COc1ccc(O)c(C=Nc2cc(C(F)(F)F)ccc2Oc2ccccc2)c1	106	90	-5	·
c1ccc(-c2nc3c4c5c(sc4ncn3n2)CCCCC5)cc1	·	·	-8	97
CCCn1c(N2CCN(CC(=O)NCc3cccs3)CC2)nc2ccccc21	133	73	-5	105
CC(C)CCn1c(O)c(N=NC(=O)Cn2ccc(C(F)(F)F)n2)c2ccccc21	87	88	7	·
CC(CC(=O)Nc1ccccc1)c1ccccc1 (stereo not drawn)	102	94	14	105
CCCCn1c(=O)n(C)c(=O)c2c1nnn2CC(=O)N1CCCc2ccccc21	86	84	-22	·
CC(C)Oc1ccc(C(=O)Nc2ccc(-c3nc4ccccc4s3)cc2)cc1	107	89	-9	104
COc1ccc(CNC(=O)C(C)n2nnc(-c3ccc(OC)c(OC)c3)n2)cc1 (stereo not drawn)	71	89	-21	·
O=S(=O)(NCc1ccc2[nH]c3c(c2c1)CCCC3)c1ccccc1	97	91	·	99
CCc1ccc(NC(=O)CCS(=O)(=O)c2cc3c(cc2Cl)NC(=O)CO3)cc1	101	90	·	104
Cc1ccc(N2C(=O)CC(Sc3nc(C)cc(C)c3C#N)C2=O)cc1 (stereo not drawn)	·	·	-18	110
CC(=O)Nc1c(-c2ccccc2)c(C)nn1-c1ccc(C(=O)N2CCc3ccccc3C2)cc1	·	·	-30	107
CCOC(C)=C(C#N)C#N	74	90	5	·
O=c1[nH]c(SCC2CCCCO2)nc2ccccc12 (stereo not drawn)	102	105	-5	·
Cc1cccc(C(=O)N2CCN(c3nc4cccnc4o3)CC2)c1C	·	·	7	104
COc1cc(CC(=O)O)cc(OC)c1OC	81	81	-18	·
Nc1cc(-c2ccccc2)no1	96	87	-8	·
Cc1ccccc1N1CCN(S(=O)(=O)c2nnc(NC(=O)c3ccccc3)s2)CC1	92	86	0	103
COc1ccc(C(C2=C(O)CCCC2=O)c2cc3c(cc2O)OCO3)cc1 (stereo not drawn)	124	86	-1	·
Cn1c2ccccc2c2cnn(CC(=O)N3CCCC3)c(=O)c21	102	80	·	101
CCOC(CCn1c(SC)nc2c(sc3ccccc32)c1=O)OCC	117	93	·	106
COc1cccc(C(=O)N2N=C(c3cccc(Br)c3)CC2(O)C(F)(F)F)c1 (stereo not drawn)	·	·	-25	108
COc1ccc(CNC(=O)c2cc3ccccn3n2)cc1OC	111	101	·	100
O=C(NCC1CCCO1)c1cc(-c2ccccc2)nc2ccccc12 (stereo not drawn)	98	83	-2	103
COc1ccc(OC)c(NC(=O)CN2C(=O)C3(OCCCO3)c3ccccc32)c1	99	87	0	105

# (cont.)
mol	Sa growth inh	Sa growth inh second temp	HCMV NEC inh	GIV Gai3 FP
CCOc1cc(-c2cccs2)nc(N)n1	98	83	-23	103
O=c1[nH]c2ccccc2n2nnnc12	101	76	-9	102
NC(=O)COC(=O)COc1ccc(OCc2ccccc2)cc1	108	96	-12	·
CCN(CC)c1ccc(NC(C)=O)c(C)c1	106	96	-13	102
O=C(Nc1ccc(S(=O)(=O)Nc2ncccn2)cc1)c1cc(=O)c2ccccc2o1	100	88	-52	100
CCOC(=O)c1cn(CC(=O)Nc2ccccc2CC)nn1	92	86	-13	105
CCN(CC)c1ccc(NC(=O)CN2CCN(CC(=O)Nc3ccccc3OC)CC2)cc1	102	96	·	105
COc1ccc(S(=O)(=O)N2CCC(C(=O)Nc3ccc(Oc4ccccc4)cc3)CC2)cc1	104	94	-1	109
O=C(COc1ccccc1)NCc1cn2ccsc2n1	102	78	-12	·
O=c1[nH]nc(-c2cccs2)c2ccccc12	110	100	-37	·
CCCSCCCNC(=O)C1CCN(C(=O)c2cnn(-c3ccccc3)c2-n2cccc2)CC1	100	82	-14	102
CCc1nnc2c(Nc3ccc(N(CC)CC)cc3C)nc3ccccc3n12	96	102	·	103
Cc1nn(C)c2sc(C(=O)NCc3ccc(N4CCN(C)CC4)cc3)cc12	82	86	3	105
CC(C)NC(=O)CSc1nccn2nc(-c3ccc(Cl)cc3)cc12	·	·	2	101
Cc1cc(/C=N/NC(=S)NCC2CCCO2)c(C)n1CC(C)C (stereo not drawn)	103	96	-23	·
COc1cc2ccc3c(CCN(C)C)cc(OC)c(OC)c3c2cc1OC	89	90	·	106
CC(C)N(Cc1ccccc1)C(=O)C1CCCN(c2ncnc3onc(-c4ccc(F)cc4)c23)C1 (stereo not drawn)	99	87	·	105
COC(=O)Cn1c2ccccc2c2nc(C)sc21	99	90	2	105
O=C(NC1c2ccccc2-c2ccccc21)c1ccco1	104	85	-25	101
CCC(NC(=O)NCc1cccnc1)(C(F)(F)F)C(F)(F)F	115	93	-6	102
O=C(Cn1c(SCc2ccc(F)cc2)nc2cccnc21)Nc1ccc(Cl)cc1F	·	·	13	105
O=C(C=C1SCCS1)c1cccs1	99	77	-86	97
COc1ccc2c(c1)CC(C(=O)Nc1ccc(OC)cc1OC)CO2 (stereo not drawn)	106	104	·	109
COc1ccc(N2CCN(C(=O)CN(C)S(=O)(=O)c3ccc4c(c3)nnn4C(C)C)CC2)cc1	·	·	-14	108
CC(C)(C)C(=O)Nc1ccc2oc(=O)ccc2c1	84	85	-20	100
COc1ccccc1C(=O)Nc1c(C(=O)c2ccccc2)oc2ccccc12	94	89	4	110
CC1(C)CC(=O)c2cc(C#N)c(SCC(N)=O)nc2C1	126	102	-43	107
Cc1cc(C)n(CNc2ccc(I)cc2)n1	162	88	-8	97
Oc1c(C(c2cccs2)N2CCCCC2)ccc2cccnc12 (stereo not drawn)	8.1*	1.9*	-48	·
CCN(CC)c1ccc(NC(=O)C(C)C)cc1	81	94	·	95
O=C1NN=C(Cc2ccccc2)C1CCO (stereo not drawn)	119	88	-20	100
CNc1ccccc1C(C)(C)c1cc(-c2cc(OC)cc(OC)c2)n[nH]1	106	103	12	·
COc1ccc(NC(=O)CN2C(=O)CC(c3ccc(C)c(C)c3)=Nc3ccccc32)cc1OC	92	92	·	95
CCOC(=O)c1c(C(C)(C)C)oc2ccc(OCc3ccc(C(=O)OC)cc3)cc12	100	99	·	105
CC(=O)Oc1ccc2c(=O)c(-c3ccccn3)coc2c1	110	83	-42	·
Clc1cccc(-c2ccc(CNCc3ccco3)o2)c1	·	·	-2	107
CN(C)c1ccc(/C=N/S(=O)(=O)c2ccccc2)cc1	89	88	-14	·
CN1C/C(=C/c2ccco2)C(=O)/C(=C/c2ccco2)C1	82	75	-112	112
CCOC(=O)C1=C(C)N(C)C(C)=C(C(=O)OCC)C1c1ccccc1F	93	88	·	102
Cc1ccc(S(=O)(=O)NCCC(=O)NC2CCCCCC2)cc1C	108	85	-12	·
O=C(CN1C(=O)COc2ccc(S(=O)(=O)N3CCCC3)cc21)N1CCN(c2cccc(C(F)(F)F)c2)CC1	97	86	-38	99
O=C(Nc1cc(-c2ccccc2)sc1C(=O)O)c1cccc(F)c1	57	45	-80	110
Cc1noc(C)c1CSc1nc2ccccc2[nH]1	83	87	-6	98
CC(C)(C)N1C(=O)c2ccccc2C1=O	95	89	·	105
N#Cc1ccc(C2Nc3cccc4cccc(c34)N2)cc1	100	90	-19	102
CCN1C(=O)c2ccccc2S(=O)c2ccc(C(=O)N3CCN(c4cc(Cl)ccc4C)CC3)cc21 (stereo not drawn)	105	90	0	103
O=C(C(Sc1ccccc1)c1ccccc1)N1CCN(c2ncccn2)CC1 (stereo not drawn)	93	100	-7	·
O=C(CSc1nc2c(c(=O)[nH]1)CCCC2)Nc1cccc(O)c1	104	85	-13	101
CCOc1ccccc1NC(=O)C(=O)NCCc1sc(-c2cccc(F)c2)nc1C	81	91	·	104
CCOC(=O)c1cc(C)nc(N2CCCCC2)c1C#N	98	91	-8	102

# Looked up above:
# O=C(Nc1cc(-c2ccccc2)sc1C(=O)O)c1cccc(F)c1 @ Sa growth inh second temp = 45
# CC(C)(C)N1C(=O)c2ccccc2C1=O @ Sa growth inh second temp = 89
# CCN1C(=O)c2ccccc2S(=O)c2ccc(C(=O)N3CCN(c4cc(Cl)ccc4C)CC3)cc21 (stereo not drawn) @ Sa growth inh second temp = 90
# O=C(C(Sc1ccccc1)c1ccccc1)N1CCN(c2ncccn2)CC1 (stereo not drawn) @ Sa growth inh second temp = 100
# Cc1noc(C)c1CSc1nc2ccccc2[nH]1 @ HCMV NEC inh = -6

# A second format for some results above.
# Every second line gives: Sa growth inh	Sa growth inh second temp	HCMV NEC inh	GIV Gai3 FP
> CCOC(C)=C(C#N)C#N
    74	90	5	·
> O=c1[nH]c(SCC2CCCCO2)nc2ccccc12 (stereo not drawn)
    102	105	-5	·
> Cc1cccc(C(=O)N2CCN(c3nc4cccnc4o3)CC2)c1C
    ·	·	7	104
> COc1cc(CC(=O)O)cc(OC)c1OC
    81	81	-18	·
> Nc1cc(-c2ccccc2)no1
    96	87	-8	·

# Additional compounds:
mol	Sa growth inh	Sa growth inh second temp	HCMV NEC inh	GIV Gai3 FP
COc1ccc(NC(=O)CCCSc2nc(-c3ccco3)cc(C(F)(F)F)n2)cc1OC	100	89	-17	105
c1ccc2c(c1)nc1n2CCCS1	77	86	5	101
O=C(Nc1ccccc1)c1ccc(CSc2nnc(-c3ccc4c(c3)OCO4)o2)cc1	67	81	-26	·
CSCc1nnc(NC(=O)c2ccc(S(=O)(=O)N3CCCC3)cc2)o1	60	46	-38	105
O=C(COC(=O)c1ccccc1Cl)c1ccc(Cl)cc1	85	85	-44	101
Cc1cc(Sc2ccc(Cl)cc2)nc2ccccc12	115	96	-26	105
Cc1cc(-c2nc3n(n2)Cc2ccccc2-3)c(C)n1-c1ccccc1	98	78	13	·
CCCCOc1ccc(CN2C(=O)C(=O)c3cc(C)ccc32)cc1OC	110	86	-5	104
O=C(Cc1ccc(Cl)c(Cl)c1)NCc1ccco1	82	91	-18	·
O=c1[nH]c(C(F)(F)F)nc2ccccc12	100	96	-13	126
